Source: PubChem BioAssay
GALR2 agonist: GALR2 receptor agonists, primary screen, cell-based; AID 803, 2007; 140,000 tested, 0.48% active; activation, %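 (tested at 5 µM)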; GALR2-expressing cells, agonist activation read-out; Galanin receptor type 2 (Homo sapiens), O43603;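 active = above mean plus 3 SD of all compounds, about 5% in these data, not always enough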;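 also: 0% = vehicle buffer wells and 100% = reference agonist at full effect; tested in CHO reporter cells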
Target sequence (O43603 whole entry, looked up): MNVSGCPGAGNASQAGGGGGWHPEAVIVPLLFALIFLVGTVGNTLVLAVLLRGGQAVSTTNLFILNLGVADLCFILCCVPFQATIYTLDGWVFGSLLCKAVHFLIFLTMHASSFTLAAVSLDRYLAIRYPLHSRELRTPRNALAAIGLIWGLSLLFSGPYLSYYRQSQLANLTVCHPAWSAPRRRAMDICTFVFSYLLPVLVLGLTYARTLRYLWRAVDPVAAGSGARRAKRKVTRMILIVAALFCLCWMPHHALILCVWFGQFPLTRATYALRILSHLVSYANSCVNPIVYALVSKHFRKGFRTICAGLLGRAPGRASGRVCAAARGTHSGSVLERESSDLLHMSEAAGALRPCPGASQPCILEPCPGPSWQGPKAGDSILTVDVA
PKD1 kinase inh: inhibitors of human PKD1 kinase, biochemical, fluorescence polarization; Serine/threonine-protein kinase D1 (Homo sapiens), Q15139; PKD1 kinase fluorescence polarization assay; inhibition, %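 (about 10 µM by stock and volumes)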; 200,000 tested, 0.056% active; AID 797, 2007;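 active = inhibition of 50% or more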;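 also: controls were vehicle for no effect and a reference inhibitor for full effect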
HSV augment: enhancers of HSV replication in host cells, fold increase, host cell viability; HSV replication augmentation in cells; maximum fold increase; 220,000 tested, 0.005% active;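 active = peak rise of 1.5-fold or more in the series; inconclusive = self-fluorescent or not available for retest; tested in PC3 cells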;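 also: first round at 10 µM; read as green reporter fluorescence; hits show the peak of a series up to 25 µM; 1 = signal of infected wells without compound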
RGS16-Gao: modulators of RGS16 binding to Galphao, primary screen, biochemical, human proteins, multiplexed bead flow cytometry; Regulator of G-protein signaling 16 (Homo sapiens) + Guanine nucleotide-binding protein …; bead-based flow cytometry RGS16-Galphao binding, fluorescence; actives lie on both sides; binding response (% of control), % at 10 µM; 220,000 tested, 0.38% active; AID 1441, 2008;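 active = below 25% or above 175%, edge rows of some plates excepted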;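 also: Galphao activated by GDP with aluminum fluoride before binding; 100% = wells without compound and 0% = beads without RGS; some results beyond the cut were filed as inactive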
Target sequence (O15492 whole entry, looked up): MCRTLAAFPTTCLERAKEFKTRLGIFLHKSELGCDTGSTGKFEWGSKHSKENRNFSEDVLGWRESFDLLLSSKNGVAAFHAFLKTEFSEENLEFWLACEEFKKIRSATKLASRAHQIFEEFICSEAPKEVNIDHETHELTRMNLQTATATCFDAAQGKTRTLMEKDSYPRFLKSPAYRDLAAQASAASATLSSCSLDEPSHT
Target sequence (P09471 whole entry, looked up): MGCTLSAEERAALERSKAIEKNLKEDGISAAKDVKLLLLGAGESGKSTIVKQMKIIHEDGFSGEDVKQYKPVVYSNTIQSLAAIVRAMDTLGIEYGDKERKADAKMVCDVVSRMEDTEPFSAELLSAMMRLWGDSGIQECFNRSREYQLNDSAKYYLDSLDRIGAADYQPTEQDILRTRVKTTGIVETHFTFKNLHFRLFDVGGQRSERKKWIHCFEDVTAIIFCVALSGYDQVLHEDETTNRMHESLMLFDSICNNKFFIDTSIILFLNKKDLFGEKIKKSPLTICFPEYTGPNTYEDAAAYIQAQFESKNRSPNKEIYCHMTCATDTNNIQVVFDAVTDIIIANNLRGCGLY
Insulin prom inh: inhibitors of insulin promoter-driven GFP, primary screen, imaging, TRM-6 cells (human fetal islet line), eGFP reporter, cell count; inhibition, % at 2 µM; 130,000 tested, 0.9% active; reporter expression induced with tamoxifen;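 active = inhibition above the mean plus 3 SD, with well images judged a real hit on visual review, cut at about 60% in these data, passing the limit was not always enough; inconclusive = inhibition over the cutoff but images rejected on review; inactive = inhibition not above the cutoff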
Insulin prom inh cell count: further read-out of Insulin prom inh, marked with its call; normalized cell count, %; measured here: cell count, toxicity; reference of the scale not given here;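 cells exposed to compound for 48 h; stained nuclei by imaging scaled within each plate; lower means fewer cells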
HSV augment primary fold: also measured in HSV augment; calls as there; fold increase; compound at 10 µM; measured here: primary screen fold increase 10 uM; tested in PC3 cells;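 GFP signal in the first replicate; 1 = infected wells without compound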
* = called active by the depositor; i = inactive; ? = inconclusive; nt = not tested or not shown. Not a hit list (roughly 1.3% active in at least one column).

structure,Insulin prom inh,Insulin prom inh cell count,PKD1 kinase inh,HSV augment,RGS16-Gao,HSV augment primary fold,GALR2 agonist
O=C(COc1ccccc1)NCc1n[nH]c(=S)n1-c1ccccc1,41.7,112.7,8.2,i,100.0,0.91,nt
CC(C)C(=O)N1CCC(CN=Cc2c(O)n(C3CCCCC3)c(=O)n(C3CCCCC3)c2=O)CC1,35.7,81.6,-8.0,i,101.0,0.91,-0.4
CC(=O)C(Cc1ccccc1)NC(=O)CN1CCc2ccccc2C1 (centres undefined),-33.3,110.2,-12.5,i,102.2,0.93,nt
Cc1cccc(C)c1NC(=O)COC(=O)CSc1nnc(N)s1,nt,nt,-5.0,i,100.0,0.97,-0.7
COc1cc2[nH]c(=O)n(CCC(=O)N3CCN(c4cccc(C)c4C)CC3)c(=O)c2cc1OC,nt,nt,-3.0,i,100.9,0.87,-1.8
CN(C)C(=O)Cn1c(SCC(=O)Nc2ccc3c(c2)OCO3)nc2ccccc21,16.7,84.6,-7.9,i,102.9,0.94,-2.0
O=C(NC1CCCCC1NC(=O)c1cccs1)c1cccs1 (centres undefined),5.0,139.0,-9.1,i,109.9,0.91,0.6
O=C(c1ccccc1F)N(Cc1nc2ccccc2c(=O)[nH]1)C1CCCC1,-41.7,77.0,-0.1,i,111.2,1.11,nt
CCOC(=O)CC(=O)Nc1nnc(C(C)C)s1,40.0,104.3,-13.0,i,103.5,0.89,-0.4
Cc1ccccc1N1C(=O)C2ON(c3ccccc3)C(c3cccnc3)C2C1=O (centres undefined),nt,nt,-2.2,i,84.5,0.96,-1.5
CCC(c1nnc(SCC(=O)NCCc2ccc(Cl)cc2Cl)o1)N(C)C (centres undefined),-305.0,62.5,-4.6,i,98.9,0.897,-3.3
CCOc1ccc(OCC)c(NC(=O)CSc2nnnn2CC)c1,25.0,116.2,4.7,i,112.2,0.82,-1.4
CCOCCCNC(=S)N(Cc1ccccc1)Cc1nc2ccccc2c(=O)[nH]1,-23.1,129.1,1.6,nt,101.8,nt,-0.8
CCN(CC)CCC(c1ccc(N(C)C)cc1)c1c(OC)cc(OC)c2ccc(=O)oc12 (centres undefined),nt,nt,nt,i,95.6,1.02,nt
CC(C)c1cccc(C(C)C)c1NC(=O)COC(=O)c1ccc2c(c1)S(=O)(=O)c1ccccc1C2=O,nt,nt,0.7,i,72.2,0.94,-1.2
Cn1c(CNS(=O)(=O)c2ccc(Br)cc2)n[nH]c1=S,33.3,128.4,-12.3,i,102.9,1.02,-1.1
O=C(COC(=O)Cc1ccc(Br)cc1)NC1CCCCCC1,nt,nt,1.2,i,102.9,0.98,nt
O=C(COC(=O)c1cc(-c2ccco2)nc2ccccc12)NCc1ccc2c(c1)OCO2,-12.1,61.6,-3.6,nt,104.6,nt,-1.1
COc1ccc(NC(=O)c2cccc(-n3c(C)ccc3C)c2)c(OC)c1,25.9,38.5,-5.0,i,102.3,0.92,-1.5
Cc1ccc(C(=O)COC(=O)C2CC(=O)N(c3nc(-c4ccccc4)cs3)C2)cc1C (centres undefined),40.9,130.5,-10.4,i,100.3,0.7,-0.7
Oc1cccc(Nc2nc(NCC3CCCO3)c3ccccc3n2)c1 (centres undefined),-26.3,90.3,0.1,i,99.3,0.9,-0.4
CN1CCN(S(=O)(=O)c2ccc(N3CCN(S(=O)(=O)c4cccs4)CC3)nc2)CC1,-16.2,99.2,-1.8,i,98.8,0.89,0.1
O=C(N/C(=C/c1ccc(Cl)cc1)C(=O)N1CCCC1)c1ccccc1,nt,nt,nt,i,105.4,0.99,nt
N#CC1=C(N)N(c2ccc(Oc3ccccc3)cc2)C(=O)C1,-6.5,75.8,-12.8,i,108.7,0.91,-1.7
O=C(CSc1nnc(Cc2cccs2)n1C1CCCCC1)N1CCCc2ccccc21,-83.9,68.6,-2.9,i,104.9,0.82,-2.6
Cc1c(-c2ccccc2)cn2c1-c1ccc(C)n1CC2,-32.1,85.5,-5.3,i,90.6,0.91,-4.6
Cc1ccc(CNC(=O)Nc2ccc3c(c2)N(C)C(=O)CS3)cc1,nt,nt,-2.1,i,112.9,0.96,nt
CC1(C)CC(=O)c2cnc(N3CCN(c4ccccc4)CC3)nc2C1,18.8,152.1,11.8,i,107.4,0.98,-0.8
CCN1CNC(=S)N(c2ccccc2OC)C1,-40.0,108.3,-2.6,i,99.1,0.94,0.2
CCOc1ccc(N2C(=O)CSC23CCCCC3)cc1,25.9,123.6,9.4,i,99.4,0.863,-1.6
CC(C)(C)S(=O)c1cccs1 (centres undefined),52.8,76.2,-2.6,i,96.2,0.94,-1.5
CCC(=O)NCCNc1ccc([N+](=O)[O-])cn1,60.0,75.8,3.1,i,101.5,0.9,-0.7
O=C(O)COc1ccccc1/C=N/NC(=O)CSc1nc2ccccc2n1Cc1ccccc1Cl,nt,nt,nt,i,95.7,1.16,nt
Cc1onc(-c2ccccc2)c1C(=O)n1nnc2ccccc21,51.7,42.3,-2.6,i,10.7,0.95,-1.2
C=C1CCC2C(C)(C)[C@H](O)CC[C@@]2(C)[C@@H]1COc1cc(=O)oc2ccccc12 (some centres undefined),9.5,125.3,-12.2,i,97.8,0.77,1.7
COc1ccc(C(=O)C(OC(=O)c2ccccc2)c2ccccc2)cc1 (centres undefined),44.4,82.3,12.3,nt,113.9,nt,-1.7
Brc1cc2c(cc1/C=N/Nc1nc3ccccc3s1)OCO2,17.1,118.0,4.2,i,99.9,0.997,-2.2
COc1ccc(NC(=O)CSc2nnc(N)s2)cc1,-33.3,108.7,-10.3,i,100.8,1.03,-1.2
CCOc1ccc(C(=O)NCC(=O)Nc2ccc(N3CCOCC3)cc2)cc1OCC,nt,nt,-0.6,i,99.4,0.87,nt
Cc1nc(-c2ccccc2)nc2[nH]c(C(C)C)cc(=O)c12,-77.8,104.2,-1.2,i,93.2,0.87,-0.9
Cc1ccc(CNC(=O)Cn2cncn2)cc1,24.3,148.2,-6.8,i,100.3,0.97,-2.8
CCSCc1nnc(SCC(=O)Nc2cccc(SC)c2)n1C,-425.0,43.9,-9.1,i,100.7,1.04,-1.4
Cc1cc(NC(=O)CN2C(=O)NC3(CCC(C)CC3)C2=O)no1 (centres undefined),0.0,74.0,-3.6,i,-10.2,1.02,-1.1
Nc1nccc(/C=C/c2c(F)cccc2Cl)n1,nt,nt,0.4,i,99.6,1.11,nt
COc1ccc(C(=O)Cc2nnc(C)s2)c(OC)c1,12.5,99.2,-23.7,i,144.7,0.99,-0.8
O=C(N1CCCC1)C12CC3CC(C1)CC(C(=O)N1CCCC1)(C3)C2,0.0,93.5,-14.2,i,102.9,0.98,nt
S=c1[nH]nc(CSc2nc3ccccc3s2)n1Cc1ccccc1,25.0,134.9,4.0,i,114.6,0.99,-2.3
COc1ccc(C2c3ccsc3CCN2C(C)=O)cc1 (centres undefined),nt,nt,nt,i,100.3,1.08,nt
Cc1c(/C(O)=C2/C(=O)C(=O)N(CCN3CCOCC3)C2c2ccccn2)cnn1-c1ccccc1 (centres undefined),4.8,81.2,-1.4,i,106.8,1.08,nt
COc1cc(/C=C2\C(C)=C(C#N)c3nc(N)c(C#N)c(C)c32)ccc1OCC(=O)O,nt,nt,nt,?,97.7,nt,nt
COc1ccc(-c2nnc(NC(=O)C(C)C)o2)cc1,nt,nt,5.6,i,104.8,0.89,-0.8
O=C(CNC(=O)c1ccco1)OCc1ccc(C(=O)c2ccccc2)cc1,nt,nt,-3.7,i,96.5,0.9,nt
CC(=O)c1cccc(N(C(=O)c2ccco2)C(C(=O)NC2CCCC2)c2ccc(N3CCOCC3)cc2)c1 (centres undefined),nt,nt,1.0,i,92.7,1.07,nt
CC1(C)CC(CC(=O)Nc2ccc([N+](=O)[O-])cc2)C(=O)O1 (centres undefined),-10.3,61.4,-3.3,i,99.9,0.96,-0.7
Cc1cccc(C)c1NC(=O)CN(c1ccccn1)S(=O)(=O)c1ccc(F)cc1,-76.9,80.3,-4.8,nt,113.2,nt,nt
Cc1cc(C)nc(/N=C2\NC(=O)CC(C(=O)O)N2CCc2c[nH]c3ccccc23)n1 (centres undefined),nt,nt,-1.5,i,99.8,0.88,-0.9
O=C(CCCn1c(=O)oc2ccccc21)N1CCc2ccccc2C1,nt,nt,2.2,i,107.8,0.803,-3.9
CCOC(=O)c1ccc(N2C(=O)C(O)=C(C(C)=O)C2c2ccc(O)c(OC)c2)cc1 (centres undefined),-41.9,117.0,-3.6,i,90.4,1.03,-1.5
COc1ccc(F)cc1C(=O)C1CCCN(Cc2c(C)n(C)n(-c3ccccc3)c2=O)C1 (centres undefined),nt,nt,-1.1,i,104.0,0.96,nt
O=C(OCCN1C(=O)c2cccc3c(N4CCOCC4)ccc(c23)C1=O)c1cccc(Cl)c1,nt,nt,0.2,nt,100.0,nt,-0.7

Looked up one by one from the entries so far, 3 records:
structure,Insulin prom inh,Insulin prom inh cell count,PKD1 kinase inh,HSV augment,RGS16-Gao,HSV augment primary fold,GALR2 agonist
O=C(OCCN1C(=O)c2cccc3c(N4CCOCC4)ccc(c23)C1=O)c1cccc(Cl)c1,nt,nt,0.2,nt,100.0,nt,-0.7
O=C(CCCn1c(=O)oc2ccccc21)N1CCc2ccccc2C1,nt,nt,2.2,i,107.8,0.803,-3.9
O=C(N1CCCC1)C12CC3CC(C1)CC(C(=O)N1CCCC1)(C3)C2,0.0,93.5,-14.2,i,102.9,0.98,nt

Back to the main list with the 2 entries that preceded the break.
structure,Insulin prom inh,Insulin prom inh cell count,PKD1 kinase inh,HSV augment,RGS16-Gao,HSV augment primary fold,GALR2 agonist
COc1ccc(F)cc1C(=O)C1CCCN(Cc2c(C)n(C)n(-c3ccccc3)c2=O)C1 (centres undefined),nt,nt,-1.1,i,104.0,0.96,nt
O=C(OCCN1C(=O)c2cccc3c(N4CCOCC4)ccc(c23)C1=O)c1cccc(Cl)c1,nt,nt,0.2,nt,100.0,nt,-0.7
COC(=O)c1ccc(NC(=O)CCn2cccc2)cc1,-42.9,89.1,16.0,i,103.9,0.897,-0.9
Cc1ccc(S(=O)(=O)C2(C(=O)N3CCCC(C)C3)CC2)cc1 (centres undefined),-90.9,53.5,-10.8,i,102.3,0.91,-1.1
O=C(N/N=C/c1cccc(O)c1)c1ccc(NC(=O)c2cccc([N+](=O)[O-])c2)cc1,nt,nt,4.2,i,95.4,0.92,nt
COc1ccccc1Cn1c(C)nnc1-c1cnn(C)c1N,nt,nt,0.2,i,98.4,0.98,nt
CC(NCC(=O)Nc1cc(S(=O)(=O)N2CCCCCC2)ccc1Cl)c1ccccc1 (centres undefined),nt,nt,-4.1,i,105.1,0.89,nt
COc1cccc(C(=O)COc2ccccc2-c2ccccc2)c1,17.9,39.5,-10.0,i,101.1,0.92,-2.3
CC1(C)S[C@@H]2[C@H](NC(=O)[C@H](C(=O)O)c3ccsc3)C(=O)N2[C@H]1C(=O)O,0.0,127.0,-2.9,nt,91.2,nt,-0.3
Cc1ccc(Oc2cc(NC(=O)CCCn3nc([N+](=O)[O-])c(Cl)c3C)cc([N+](=O)[O-])c2)cc1,40.0,104.9,3.2,i,109.2,0.89,-1.2
CC1(C)Cc2c(c(N3CCOCC3)nc3sc(C(N)=O)c(N)c23)CO1,nt,nt,nt,i,103.1,1.06,nt
O=c1c2[nH]c3ccc(F)cc3c2ncn1Cc1ccncc1,nt,nt,nt,i,101.1,0.94,nt
CNC(=O)C1CC(=O)N(CCc2ccc(OC)c(OC)c2)C(=Nc2ccc(F)cc2)S1 (centres undefined),nt,nt,-6.0,i,99.4,0.93,nt
CCOC(=O)C1CC(c2ccc(Cl)cc2)=NNC1=O (centres undefined),-50.0,79.3,5.3,i,100.3,1,nt
COc1ccccc1CNC(=O)C1CCN(C(=O)NC2CCCCC2)CC1,11.1,124.7,0.8,i,101.7,0.95,nt
CCCC1(C(=O)O)NC(c2ccccc2O)C2C(=O)N(Cc3ccccc3)C(=O)C21 (centres undefined),nt,nt,-13.8,i,99.1,0.89,-1.1
O=C(CSc1c2c(nc3ccccc13)CCCC2)NCc1ccco1,60.0,56.5,-6.9,i,91.5,1.14,nt
